Source: PubChem BioAssay (National Center for Advancing Translational Sciences (NCATS))
VDR inhibitor – blocks the human vitamin D receptor. P11473. VDR-SRC2-3 peptide fluorescence polarization, 2 h. Potency, µM, for the others: max response, negative = inhibition, most hits filed as inhibitors. 0.93% of 400,000 active. AID 504847; active means well fitted inhibition curve with a large enough effect; inconclusive means small, poorly fitted or top-dose-only effect, or another doubt; inactive means no such curve, though single readings can be large or run the other way; further: series mostly up to about 120 µM
Target sequence (P11473 whole entry, looked up): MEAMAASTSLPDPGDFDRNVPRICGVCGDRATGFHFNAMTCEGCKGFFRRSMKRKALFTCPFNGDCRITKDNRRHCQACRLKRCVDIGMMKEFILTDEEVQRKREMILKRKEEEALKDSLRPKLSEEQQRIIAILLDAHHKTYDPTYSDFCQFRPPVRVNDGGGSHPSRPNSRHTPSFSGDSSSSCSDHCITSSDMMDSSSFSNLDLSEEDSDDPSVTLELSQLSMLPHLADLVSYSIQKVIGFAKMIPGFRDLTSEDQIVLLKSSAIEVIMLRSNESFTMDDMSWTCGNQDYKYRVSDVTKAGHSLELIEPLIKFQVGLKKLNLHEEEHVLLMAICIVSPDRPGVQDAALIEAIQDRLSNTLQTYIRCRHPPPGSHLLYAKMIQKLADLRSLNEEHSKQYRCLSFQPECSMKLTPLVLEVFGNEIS
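Signal is fluorescence polarization, reporting how far test compounds block the interaction of VDR with the SRC2-3 coregulator peptide after a 2 h room-temperature incubation.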
* = called active by the depositor; ? = inconclusive; & = joins results of further samples. On the % scale 0 is the no-effect control and ±100 the full control effect; potency means the concentration at half of the fitted maximal effect. Not all compounds are listed; count on the stated rates, not on these rows.

VDR inhibitor | compound
5.6% | O=C(CSc1nnc(NC(=O)c2ccco2)s1)NC1CCCCC1
27.5% | CC(C)(C)C(=O)[C@@H]1[C@@H]2C(=O)N(C3CCCCC3)C(=O)[C@@H]2[C@H]2c3ccccc3C=CN12
7.5% | O=c1[nH]c2ccc(NCc3ccccc3F)cc2[nH]1
14.5% | CCCCNc1c(-c2ccc(OC)c(Sc3ccc(OC)cc3)c2)nc2ccc(Cl)cn12
-14.5% | COc1ccc(CNC(=O)CN(C(=O)c2cc3sccc3n2C)C2CCCC2)cc1
-12.3% | CN(C)S(=O)(=O)c1cccc(C(=O)c2nccn2C)c1
3.6% | COc1ccc(OC)c(NC(=O)CSc2nnc(CNC(=O)c3ccco3)o2)c1
3.3% | CCCS(=O)(=O)C(=C(Nc1ccccc1)Nc1ccccc1)S(=O)(=O)CCC
-7.0% | COc1cc2c(cc1OC)CN(CC(=O)Nc1ccc(C)c(C)c1)CC2
-20.7% | CCOc1ccc(C(=O)NC(=S)Nc2ccccc2N2CCOCC2)cc1Br
-14.6% | CC1CC(C)CN(C(=O)COC(=O)CCCN2C(=O)c3cccc4cccc(c34)C2=O)C1 (configuration not stated)
-10.2% | COc1ccc(C2=NCCn3nc4cc([N+](=O)[O-])ccc4c32)cc1
-7.7% | COc1ccccc1N1CCN(/N=C/c2cc(Br)ccc2F)CC1
0.6% | Cc1cccc(N2CCN(C(=O)Cc3ccc(-n4c(=O)[nH]c5ccsc5c4=O)cc3)CC2C)c1 (configuration not stated)
3.7% | COc1ccc(C(=O)OCC(=O)NC2CCCC2)c(OC)c1
-1.0% | N=c1n(CC(=O)c2cccc([N+](=O)[O-])c2)c2ccccc2n1Cc1ccccc1
7.9% | O=C(Nc1ncc(Cc2cccc(Cl)c2)s1)C1=NCCN1
-3.2% | COc1cc(Cl)c(C)cc1NC(=O)c1ccc2c(Cl)c3c(nc2c1)CCC3
-14.5% | Cc1cc(C)c(C)c(S(=O)(=O)N2CCC(C(=O)Nc3ccccc3N3CCOCC3)CC2)c1C
-14.5% | C=CCn1c(SCC(=O)NCc2ccccc2)nnc1-c1cc(Br)ccc1O
8.6% | COc1ccc(C(=O)N2CCC(O)(c3ccc(Cl)cc3)CC2)cc1OC
-12.3% | Cc1ccc(C(=O)N2CCCC(Nc3cccc(F)c3)C2)cc1N1CCNC1=O (configuration not stated)
5.8% | COc1ccc(NS(=O)(=O)c2ccc(C(=O)N3CCN(Cc4ccccc4)CC3)cc2)cc1
-13.2% | C[C@H]1CN([C@@H](C)CO)C(=O)c2cccc(NS(=O)(=O)c3ccc(F)cc3)c2O[C@H]1CN(C)Cc1ccc(Cl)c(Cl)c1
12.5% | CC(=O)Nc1ccc(NC(=O)CSc2nc3c([nH]c4ccccc43)c(=O)n2-c2ccccc2F)cc1
? | Cc1cccc(-n2c(=S)[nH]c3sc4c(c3c2=O)CCc2ccccc2-4)c1
-18.5% | C=CCn1c(SCC(=O)NC(=O)NC)nnc1C1CCCCC1
3.0% | CCCCCCCCn1cnc2c(N)c(C)c(C)cc21
-3.1% | CCC/C=N/NC(=O)c1cc(-c2ccccc2)nc2ccccc12
9.6% | CCOC(=O)CSc1nc2ccc(NC(=O)c3ccccc3)cc2s1
-17.6% | COCCN(C(=O)CSc1nnc(-c2ccc(Cl)cc2)o1)c1c(N)n(CC(C)C)c(=O)[nH]c1=O
? | CC(=O)C(C(C)=O)C1(O)C(=O)c2ccccc2C1=O
0.4% | O=c1oc(-c2cccnc2)nc2ccccc12
-14.6% | O=C(N/C(=C/c1ccco1)C(=O)N1CCCCCC1)c1ccccc1
0.1% | Cc1cccc(N2CCN(C(=O)CCCSc3nc4ccccc4[nH]3)CC2)c1C
-2.3% | CCc1cc(C(=O)NNC(=O)CCl)sc1C
-13.6% | COc1cc(C2CC(=O)Oc3ccc(O)cc32)cc(OC)c1OC (configuration not stated)
-8.6% | CCn1cc(/C=N\NC(=O)C2(C)CC2(Cl)Cl)c(C)n1 (configuration not stated)
-6.2% | CCCOC(=O)CSc1nc(N2CCOCC2)c2c(c1C#N)CC(C)(C)OC2
-10.1% | O=C(COC(=O)c1cccs1)Nc1ccccc1[N+](=O)[O-]
-3.7% | O=C(Nc1cccc(O)c1)C1CC(c2cccc(Br)c2)=NO1 (configuration not stated)
4.7% | CCOc1ccccc1-n1c(SCC(=O)NC(C)(C)C)nnc1-c1ccoc1C
9.4% | O=C(CSCc1ccccc1)N1CCc2ccccc21
-1.9% | Nc1nc(Nc2cccc(F)c2)nc(NCc2ccco2)c1[N+](=O)[O-]
-5.4% | CN1CCN(C(CNC(=O)C(=O)NC2CCCCC2)c2ccc(F)cc2)CC1 (configuration not stated)
-6.5% | Cc1ccc(CNC(=O)CCS(=O)(=O)c2cc(Br)cc3c2N(C(=O)C2CC2)CC3)o1
15.6% | Cc1nc(-c2ccccc2)cs1
-7.8% | Cc1cc(/C=C2/NC(=O)NC2=O)c(C)n1-c1sc2c(c1C#N)CCCC2

Another view of 3 compounds above:
SMILES	VDR inhibitor
Cc1cccc(N2CCN(C(=O)CCCSc3nc4ccccc4[nH]3)CC2)c1C	0.1%
CCc1cc(C(=O)NNC(=O)CCl)sc1C	-2.3%
COc1cc(C2CC(=O)Oc3ccc(O)cc32)cc(OC)c1OC (configuration not stated)	-13.6%

(listing goes on)
VDR inhibitor | compound
6.1% | COCCN(CC(=O)Nc1cccc(C)c1C)C(=O)c1cc2ccccc2cc1OC
1.5% | C=CCc1cc(OC)ccc1OCCON1C(=O)CCC1=O
-8.2% | CC1CC(C)CN(C(=O)COC(=O)COc2ccc(C#N)cc2)C1 (configuration not stated)
-6.2% | COc1ccc(-c2cc(C(F)(F)F)n3nc(C(=O)O)c(Cl)c3n2)cc1OC
8.7% | Cc1cc2cc(CN3C(=O)c4ccccc4C3=O)ccc2n1C
-3.6% | Cc1nn(-c2ccccc2)nc1C(=O)Oc1cc(C(F)(F)F)nn1-c1ccccc1
0.3% | Cc1cccc(CCNC(=O)c2cc(S(=O)(=O)N3CCOCC3)cn2C)c1
0.9% | Cc1cc(C)c(S(=O)(=O)c2ccccc2)c(OC(=O)c2c(F)cccc2F)n1
-4.7% | O=C(/C(=C(\O)c1ccccc1)c1nc2ccccc2[nH]1)c1ccccc1
-8.0% | Cc1ccc(OCC(=O)N2CCN(C3=NS(=O)(=O)c4ccccc43)CC2)cc1
-21.1% | CC(C)(C)[C@H]1COC(=O)[C@@H](NC(=O)OCC2c3ccccc3-c3ccccc32)C/C=C\C[C@@H](CC(=O)N[C@@H](CO)Cc2ccccc2)C(=O)N1
0.6% | CCCNS(=O)(=O)c1ccc(OCC(=O)NCCC2=CCCCC2)cc1
-11.6% | CC1CC(C)CN(CC(=O)Nc2cc(S(=O)(=O)N3CCOCC3)ccc2N2CCCC2)C1 (configuration not stated)
-7.8% | O=C(CN(Cc1ccccc1)C(=O)c1csnn1)NCCc1ccccc1
0.9% | CCN(CCCNC(=O)C1CCN(S(=O)(=O)c2cnc[nH]2)CC1)c1cccc(C)c1
-5.1% | O=C(NCc1ccc(Cl)c(Cl)c1)C1CCCC1
13.6% | O=C(NC1CCN(Cc2ccccc2)CC1)c1cccc(OC(F)F)c1
13.0% | O=c1c2[nH]c3ccc(F)cc3c2nc2n1CCS2
-8.2% | O=C(NCCCO)c1cc([N+](=O)[O-])cc2c1C=Cc1ccccc1O2
-13.2% | S=C1NCN(Cc2cccnc2)CN1Cc1ccccc1
31.6µM* | CC(=O)Nc1ccc(Nc2nc(-c3sc(NC(C)=O)nc3C)cs2)cc1
-6.7% | CCCCCCOC(=O)CC1CC(C(C)=O)C1(C)C (configuration not stated)
18.0% | COc1ccc(NC(=O)CCCn2c(=O)oc3ccccc32)cc1Cl
5.2% | COCCNS(=O)(=O)c1cc(C)c(C)cc1C
-9.6% | CNC(=O)COC(=O)/C=C/c1cn(-c2ccccc2)nc1-c1ccc2c(c1)OCCO2
7.5% | CCOc1ccc(S(=O)(=O)NCCC(=O)N2CC=C(c3ccccc3)CC2)cc1
-3.8% | O=C(CN(c1ccc(F)cc1)S(=O)(=O)c1ccccc1)Nc1ccccc1C(=O)O
5.8% | CCN=C1SC(CC(=O)NC2CCCCC2)C(=O)N1CC (configuration not stated)
-20.3% | O=C(COC(=O)c1ccc(OC(F)F)cc1)NCCNC(=O)COC(=O)c1ccc(OC(F)F)cc1
9.8% | CCOCCc1nn2c(=O)cc(COC(=O)c3ccc4c(c3)OCO4)nc2s1
6.3% | CCOC(=O)C1=C(C)N(C)C(=S)NC1c1ccc(Cl)cc1Cl (configuration not stated)
79.4µM* | CCc1cc(SC#N)cc(C)c1NC(=O)CCl
-5.2% | N#CCSc1nnc2c(Cl)cc(Cl)cn12
-0.3% | CCOC(=O)c1cnc2c(Cl)cc(Cl)cc2c1NCCOCCO
15.3% | O=S1(=O)CC(O)C(N(CCO)C(=S)Nc2ccccc2)C1 (configuration not stated)
-4.1% | CCCCN(CC)CCNC(=O)c1cn(-c2ccc(Cl)cc2)c(=O)c2ccccc12
5.9% | COc1ccc(-c2nc(C#N)c(N3CCC(C)CC3)o2)cc1
-1.5% | COc1ccc(-c2nc(C#N)c(NCCCn3ccnc3)o2)cc1OC
-18.3% | CCc1cccc(C)c1NC(=O)c1cccnc1
-93.9% | CC1CCCCC1NC(=O)COc1ccccc1C#N (configuration not stated)
-2.9% | Fc1ccc(-n2nnnc2-c2ccccc2Cl)cc1
-0.7% | Clc1ccc(-c2noc(CSc3nnc(Cc4cccs4)n3-c3ccccc3)n2)cc1
-12.8% | O=C(Nc1cccc(S(=O)(=O)NC2=NCCC2)c1)C1CC(=O)N(c2ccc3c(c2)OCCO3)C1 (configuration not stated)
4.8% | CN(C)S(=O)(=O)c1cccc(C(=O)OCC(=O)NCc2ccccc2)c1
8.9% | CCCc1nc2ccc([N+](=O)[O-])cc2[nH]1
1.1% | Cc1c(N=Cc2ccc(Cl)o2)c(=O)n(-c2ccccc2)n1C
-14.5% | CCCCn1c(N)c(N(CCOC)C(=O)c2oc3ccc(OCC)cc3c2C)c(=O)[nH]c1=O
11.6% | Cc1c(C(=O)N(C)C)sc2c1c(=O)n(-c1ccc(Cl)c(Cl)c1)c(=O)n2CC(=O)N1CCCCC1C (configuration not stated)

An excerpt from above in order of SMILES length, smallest number first:
VDR inhibitor | compound
-5.2% | N#CCSc1nnc2c(Cl)cc(Cl)cn12
7.5% | O=c1[nH]c2ccc(NCc3ccccc3F)cc2[nH]1
3.7% | COc1ccc(C(=O)OCC(=O)NC2CCCC2)c(OC)c1
8.7% | Cc1cc2cc(CN3C(=O)c4ccccc4C3=O)ccc2n1C
0.6% | CCCNS(=O)(=O)c1ccc(OCC(=O)NCCC2=CCCCC2)cc1
8.6% | COc1ccc(C(=O)N2CCC(O)(c3ccc(Cl)cc3)CC2)cc1OC
-6.2% | CCCOC(=O)CSc1nc(N2CCOCC2)c2c(c1C#N)CC(C)(C)OC2

Continuation:
VDR inhibitor | compound
-6.8% | Cc1nc(SCC(=O)NCc2ccco2)c2oc3ccccc3c2n1
-3.4% | COc1ccccc1-n1nnnc1SCC(=O)NCC1(N2CCOCC2)CCCCC1
-5.7% | O=c1c2ccccc2oc2ccccc12
-1.7% | COC(=O)c1ccc(Cn2cnc3c(N)ncnc32)cc1
1.6% | O=C(CN1C(=O)c2cccc3cccc1c23)NCc1ccccn1
? | COc1cc(-c2csc(CCn3nc(C)cc3C)n2)cc(OC)c1OC
-9.7% | CCCCn1c(SCc2cccc([N+](=O)[O-])c2)nc2ccsc2c1=O
1.7% | COc1ccc(NC(=O)C2C3C=CC4(CN(Cc5cccnc5)C(=O)C24)O3)c(OC)c1 (configuration not stated)
-23.0% | CC1=C(C(=O)OCc2ccccc2)C(c2ccc([N+](=O)[O-])cc2)NC(=O)N1 (configuration not stated)
-8.9% | O=C(CN1C(=O)COc2ccc(S(=O)(=O)N3CCCC3)cc21)NCc1ccccn1
-8.5% | COc1cccc(NC(=O)c2ccc(-n3cccn3)nc2)c1
-7.0% | O=S(=O)(c1ccc(Br)c2nsnc12)N1CCOCC1
2.2% | COc1cc(C(=O)N2CCN(c3cccc(C)c3C)CC2)ccc1OCC(=O)N1CCOCC1
13.8% | O=c1[nH]n(-c2ncnc3c2cnn3-c2ccccc2)c(=O)c2ccccc12
-27.3% | O=C1OCC(O)=C1Cc1ccccc1
4.5% | Cc1ccc(C2C3=C(CC(C)(C)CC3=O)NC3=C2C(=O)CC(C)(C)C3)o1
4.9% | OC(COCc1ccc2c(c1)OCO2)CN1CCC(Cc2ccccc2)CC1 (configuration not stated)
-0.4% | Cc1ccc(C)c(N2CCN(C(=O)c3cc4c(C)nc5ccccc5c4o3)CC2)c1
-12.8% | Cc1nn(Cc2ccccc2)c(Cl)c1C(=O)OCc1nnc(-c2ccccc2)o1
-0.1% | O=C1OC(Nc2ncccn2)c2ccccc21 (configuration not stated)
3.7% | Cc1ccccc1C(=O)NC(CC(C)C)C(=O)Nc1cccc(S(=O)(=O)N(C)C)c1 (configuration not stated)
-19.5% | Cc1ccc(-c2nc(N)sc2-c2ccccc2)cc1C
2.4% | COc1ccc(CC(=O)OCC(=O)NCc2ccco2)cc1OC
0.0% | COC(=O)C1=Cc2cc(OC)cc([N+](=O)[O-])c2OC1N1CCOCC1 (configuration not stated)
-13.0% | CC(C)(C)OC(=O)N1CCC[C@H]1c1nnc(SCc2ccccc2Cl)o1
28.8% | Cc1ccc(S(=O)(=O)N2CCN(C(=O)COC(=O)/C=C/c3ccc(C(F)(F)F)cc3)CC2)c(C)c1
5.4% | CCOC(=O)CC(=O)CSc1ccc2nnc(-c3ccccc3)n2n1
-1.8% | COc1ccc(-c2cnc3nc[nH]c(=O)c3n2)cc1
-2.0%&2.5% | CCCN1CCN(CCCNC(=O)c2ccc(CS(=O)c3ccc(OC)cc3)o2)CC1 (configuration not stated)
6.8% | COc1ccc(-c2noc(C3CCCN(C(=O)c4ccccc4C)C3)n2)cc1 (configuration not stated)
